From PubChem
UUG fidelity = alters start codon recognition fidelity in yeast | S. cerevisiae UUG-firefly luciferase reporter, luminescence/redox ratio | activity score, % at 18.7 µM | 350,000 tested, 0.13% active;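 active = replicate mean at a twofold rise or more, about +100% in these data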;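 note: firefly luciferase made from a UUG start codon reports start codon fidelity; reporter light over untreated wells divided by growth signal over untreated wells; some hits fall short of that in this replicate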
* hit, by the source's call. Some of the compounds tested (hit frequency here may not be typical).

| SMILES | UUG fidelity |
| --- | --- |
| CO[C@H]1CN(C)C(=O)c2ccc(NC(=O)c3nc4ccccc4s3)cc2OC[C@H](C)N(Cc2ccncc2)C[C@H]1C | 172.9* |
| O=C(C1CCCCC1)N1C[C@@H]2[C@H](c3ccccc31)[C@H](CO)N2C(=O)c1ccccc1F | -2.2 |
| CO[C@H]1CN(C)C(=O)c2cc(NC(=O)c3ccccc3F)ccc2OC[C@@H](C)N(CC2CC2)C[C@@H]1C | 1.8 |
| C[C@H](O)C#Cc1ccc([C@@H]2[C@@H](CO)N3CCCCN(C(=O)Nc4ccccc4)C[C@@H]23)cc1 | 7.4 |
| C[C@H](CO)N1C[C@H](C)[C@@H](CN(C)C(=O)Nc2ccc(F)cc2)Oc2ccc(NS(C)(=O)=O)cc2CC1=O | 1.3 |
| C[C@H](CO)N1C[C@H](C)[C@@H](CN(C)S(=O)(=O)c2ccc(Cl)cc2)Oc2ccc(NS(=O)(=O)c3cccs3)cc2C1=O | -2.8 |
| CO[C@H]1CN(C)C(=O)c2cc(NC(=O)C3CC3)ccc2OC[C@H](C)N(C(C)=O)C[C@@H]1C | 5.8 |
| CCC(=O)N1CCCCN2[C@@H](CO)[C@H](c3ccc(-c4ccc(F)cc4)cc3)[C@@H]2C1 | -10.9 |
| OC[C@@H]1[C@H](c2ccc(C#CC3(O)CCCC3)cc2)[C@H]2CN(Cc3cccnc3)CCCCN12 | -1.7 |
| COc1ccc(C#Cc2ccc3c(c2)[C@H]2[C@H](CCN2C(=O)C2CCCCC2)[C@@H](CO)N3)cc1 | -8.6 |
| CO[C@@H]1CN(C)C(=O)c2cc(NS(C)(=O)=O)ccc2OC[C@H](C)N(CC2CC2)C[C@H]1C | -15.1 |
| COc1ccccc1C(=O)Nc1ccc2c(c1)C(=O)N(C)[C@@H]1CC[C@H](CC(=O)NCc3ccc(Cl)c(Cl)c3)O[C@H]1CO2 | -11.2 |
| CC(C)NC(=O)N1CCCCN2[C@H](C1)[C@H](c1ccc(C#CC3CC3)cc1)[C@@H]2CO | 18.8 |
| C[C@H](CO)N1C[C@H](C)[C@@H](CN(C)C)Oc2ccc(NS(=O)(=O)c3ccc(Cl)cc3)cc2CC1=O | -2.7 |
| C[C@@H]1CN([C@@H](C)CO)C(=O)c2cc(NC(=O)CCC(F)(F)F)ccc2O[C@H]1CN(C)Cc1ccc(C(=O)O)cc1 | -9.4 |
| C[C@@H]1CN([C@H](C)CO)C(=O)CCCn2cc(nn2)CO[C@H]1CN(C)Cc1cccc(C(=O)O)c1 | -10.5 |
| O=C(NC[C@H]1[C@@H](c2ccccc2)[C@H](CO)N1C(=O)Cc1ccncc1)C1CCC1 | 9.4 |
| CO[C@H]1CN(C)C(=O)c2ccc(NS(=O)(=O)c3ccc(Cl)cc3)cc2OC[C@@H](C)N(C(=O)NC(C)C)C[C@H]1C | 27.3 |
| COc1ccccc1-c1ccc2c(c1)[C@@H]1[C@@H](CCN1C(=O)C1CC1)[C@@H](CO)N2 | -7.5 |
| COCCNC(=O)C[C@@H]1CC[C@H]2[C@@H](COc3ccc(NS(=O)(=O)c4ccc(Cl)cc4)cc3C(=O)N2C)O1 | 8.8 |
| C[C@H](CO)N1C[C@H](C)[C@H](CN(C)S(=O)(=O)c2ccccc2)Oc2ccc(NC(=O)c3ccncc3)cc2C1=O | 10.2 |
| C[C@H](CO)N1C[C@H](C)[C@H](CN(C)C)Oc2c(NC(=O)C3CCOCC3)cccc2C1=O | -1.1 |
| O=C(C1CC1)N1CCCCN2[C@@H](CO)[C@@H](c3ccc(C#CC4CC4)cc3)[C@@H]2C1 | 14.5 |
| CCN(C[C@@H]1N[C@@H](CO)[C@@H]1c1ccc(-c2ccc(F)cc2)cc1)C(=O)COC | 5.8 |

Reprinted from the part before: 5 compounds, followed by the next part.
| SMILES | UUG fidelity |
| --- | --- |
| COCCNC(=O)C[C@@H]1CC[C@H]2[C@@H](COc3ccc(NS(=O)(=O)c4ccc(Cl)cc4)cc3C(=O)N2C)O1 | 8.8 |
| C[C@H](CO)N1C[C@H](C)[C@H](CN(C)S(=O)(=O)c2ccccc2)Oc2ccc(NC(=O)c3ccncc3)cc2C1=O | 10.2 |
| C[C@H](CO)N1C[C@H](C)[C@H](CN(C)C)Oc2c(NC(=O)C3CCOCC3)cccc2C1=O | -1.1 |
| O=C(C1CC1)N1CCCCN2[C@@H](CO)[C@@H](c3ccc(C#CC4CC4)cc3)[C@@H]2C1 | 14.5 |
| CCN(C[C@@H]1N[C@@H](CO)[C@@H]1c1ccc(-c2ccc(F)cc2)cc1)C(=O)COC | 5.8 |
| CN(C)C(=O)C[C@H]1CC[C@@H]2[C@H](COc3ccc(NC(=O)C4CC4)cc3C(=O)N2C)O1 | -6.8 |
| C[C@@H]1CN([C@H](C)CO)C(=O)c2cccc(NS(=O)(=O)c3cccs3)c2O[C@H]1CN(C)S(=O)(=O)c1cn(C)cn1 | 4.8 |
| C[C@H](CO)N1C[C@H](C)[C@@H](CN(C)C)Oc2c(NC(=O)Nc3ccc4c(c3)OCO4)cccc2C1=O | -9.0 |
| COc1ccc(NC(=O)Nc2ccc3c(c2)C(=O)N([C@H](C)CO)C[C@H](C)[C@@H](CN(C)Cc2ccc(-c4ccccc4)cc2)O3)cc1 | 10.8 |
| CN(C)CC(=O)N1CCCCN2[C@@H](CO)[C@@H](c3ccc(/C=C/c4ccccc4)cc3)[C@@H]2C1 | 43.9 |
| C[C@@H]1CN([C@@H](C)CO)C(=O)c2cc(NS(=O)(=O)c3ccc(F)cc3)ccc2O[C@@H]1CN(C)Cc1ccc(-c2ccccc2)cc1 | 6.9 |
| N#Cc1cccc(-c2ccc([C@@H]3[C@@H](CO)N4CCCCN(Cc5ccccc5F)C[C@@H]34)cc2)c1 | -11.9 |
| O=C(C[C@H]1CC[C@H]2[C@@H](COC[C@@H](O)CN2Cc2ccccc2F)O1)NCc1ccccc1F | 1.2 |
| C[C@@H]1CN([C@H](C)CO)C(=O)c2cc(NS(C)(=O)=O)ccc2O[C@H]1CN(C)C | 2.3 |
| C[C@@H]1CN([C@H](C)CO)C(=O)c2cccc(NC(=O)Nc3ccc(C(F)(F)F)cc3)c2O[C@@H]1CN(C)S(=O)(=O)c1cccs1 | -12.9 |
| O=C(c1ccccc1)N1C[C@@H]2[C@H](c3ccccc31)[C@H](CO)N2Cc1ccccn1 | -17.7 |
| CO[C@H]1CN(C)C(=O)c2ccc(NC(C)=O)cc2OC[C@H](C)N(C(=O)c2cccnc2)C[C@H]1C | -4.2 |
| COc1ccc(NC(=O)N(C)C[C@H]2Oc3ccc(NC(=O)Nc4ccc5c(c4)OCO5)cc3C(=O)N([C@@H](C)CO)C[C@@H]2C)cc1 | 3.3 |
| O=C(C[C@H]1CC[C@H]2[C@@H](COC[C@@H](O)CN2C(=O)c2ccc(F)cc2)O1)NCCCN1CCOCC1 | 2.6 |
| O=C(C1CCC1)N1CCCCN2[C@H](CO)[C@H](c3ccc(-c4ccncc4)cc3)[C@@H]2C1 | -14.9 |
| COc1ccc(S(=O)(=O)N(C)C[C@@H]2Oc3ccc(NC(=O)Cc4ccccc4)cc3C(=O)N([C@@H](C)CO)C[C@H]2C)cc1 | 5.0 |
| COc1ccc(S(=O)(=O)N(C)C[C@H]2Oc3ccc(NC(=O)C4CC4)cc3C(=O)N([C@@H](C)CO)C[C@@H]2C)cc1 | 29.9 |
| O=C(C[C@H]1CC[C@@H]2[C@H](COC[C@H](O)CN2C(=O)c2ccccc2F)O1)N1CCCCC1 | -1.2 |
| Cn1cnc(S(=O)(=O)N2CC[C@@H]3[C@H](CO)Nc4ccc(C5=CCCCC5)cc4[C@@H]32)c1 | -10.4 |
| CCNC(=O)C[C@@H]1CC[C@H]2[C@@H](COC[C@@H](O)CN2S(=O)(=O)c2ccccc2F)O1 | 17.8 |
| CCC(=O)N1[C@H](CO)[C@@H](c2ccc(C3=CCCC3)cc2)[C@@H]1CNC(=O)CN(C)C | 23.5 |
| CO[C@H]1CN(C)C(=O)c2ccc(NC(=O)C3CCC3)cc2OC[C@@H](C)N(Cc2nccs2)C[C@@H]1C | 3.7 |
| CC(C)NC(=O)Nc1ccc2c(c1)CC(=O)N([C@H](C)CO)C[C@H](C)[C@H](CN(C)C(=O)NC(C)C)O2 | 0.7 |
| O=C(C[C@H]1C[C@@H]2c3cc(NC(=O)Nc4ccc(F)cc4)ccc3O[C@@H]2[C@@H](CO)O1)NCC(F)(F)F | -4.9 |
| CN1c2ccc(-c3cccc(C#N)c3)cc2[C@H]2[C@H](CCN2C(=O)Cc2ccccn2)[C@H]1CO | -28.7 |
| COCC(=O)Nc1ccc2c(c1)[C@H]1C[C@H](CC(=O)NCc3cc(F)ccc3F)O[C@@H](CO)[C@H]1O2 | -12.4 |
| CC(=O)N1[C@H](CO)[C@@H]2c3ccccc3N(S(=O)(=O)c3ccccc3)C[C@@H]21 | -4.3 |
| CO[C@H]1CN(C)C(=O)c2ccc(NC(=O)C3CC3)cc2OC[C@@H](C)NC[C@@H]1C | -5.1 |
| CC(C)NC(=O)Nc1ccc2c(c1)CC(=O)N([C@@H](C)CO)C[C@@H](C)[C@@H](CN(C)C(=O)NC(C)C)O2 | -1.4 |
| C[C@H](CO)N1C[C@H](C)[C@H](CN(C)Cc2ccc(C(=O)Nc3ccccc3N)cc2)OCc2cnnn2CCCC1=O | -0.8 |
| CN(C)CC#Cc1ccc([C@@H]2[C@@H](CO)N3CCCCN(C(=O)C4CCCC4)C[C@H]23)cc1 | 4.0 |
| CC(C)NC(=O)Nc1ccc2c(c1)CC(=O)N([C@H](C)CO)C[C@H](C)[C@@H](CN(C)Cc1ccc(Oc3ccccc3)cc1)O2 | -3.8 |
| CNC[C@@H]1Oc2ccc(NS(=O)(=O)c3ccc(OC)cc3)cc2C(=O)N([C@H](C)CO)C[C@H]1C | -14.1 |
| CCN(C[C@@H]1[C@@H](c2ccccc2)[C@H](CO)N1CC1CCCC1)C(C)=O | -12.5 |
| COc1ccc(-c2ccc3c(c2)[C@H]2[C@H](CCN2C(=O)Cc2cccnc2)[C@H](CO)N3C)cc1 | 6.4 |
| C/C=C/c1ccc([C@@H]2[C@@H](CO)N(C(C)=O)[C@H]2CN(C)S(C)(=O)=O)cc1 | -13.1 |

(further entries)
SMILES | UUG fidelity
COc1ccc(NC(=O)Nc2cccc3c2O[C@H](CN(C)Cc2ccc(C(=O)O)cc2)[C@H](C)CN([C@@H](C)CO)C3=O)cc1 | 3.3
CO[C@H]1CN(C)C(=O)c2ccc(NC(=O)NC(C)C)cc2OC[C@H](C)N(Cc2ccccc2)C[C@H]1C | 10.7
Cc1ccc(S(=O)(=O)N(C)C[C@@H]2Oc3ccc(NC(=O)CCCN(C)C)cc3C(=O)N([C@H](C)CO)C[C@@H]2C)cc1 | -1.4
CN1CCN(C(=O)C[C@H]2C[C@@H]3c4cc(NC(=O)CC5CC5)ccc4O[C@@H]3[C@@H](CO)O2)CC1 | -8.3
CC(C)CN(C[C@H]1[C@H](c2ccccc2)[C@@H](CO)N1C(=O)C1CCC1)C(=O)C1CC1 | -2.8
Cc1ccc(-c2ccc([C@H]3[C@H](CO)N4CCCCN(S(=O)(=O)c5cccc(C)c5)C[C@@H]34)cc2)cc1 | -14.2
C[C@@H]1CN([C@H](C)CO)C(=O)c2cccc(NC(=O)Nc3ccc4c(c3)OCO4)c2O[C@H]1CN(C)Cc1ccc(C(=O)Nc2ccccc2N)cc1 | -1.4
CN1c2ccc(Br)cc2[C@H]2[C@H](CCN2C(=O)Nc2cccc(F)c2)[C@@H]1CO | -2.7
CC(C)NC(=O)N1CCCCN2[C@@H](CO)[C@@H](c3ccc(C#Cc4ccccc4)cc3)[C@@H]2C1 | 5.3
COc1ccc(S(=O)(=O)N2CCCCN3[C@@H](CO)[C@@H](c4ccc(C5=CCCCC5)cc4)[C@@H]3C2)cc1 | -3.4
O=C(C[C@@H]1CC[C@H]2[C@@H](COC[C@H](O)CN2CC2CCCCC2)O1)NCC1CC1 | -1.3
CCC(=O)N1[C@H](CO)[C@H](c2ccccc2)[C@H]1CNC(=O)CN1CCOCC1 | -12.4
O=C(c1ccccc1F)N1C[C@@H]2[C@H](c3ccccc31)[C@@H](CO)N2C(=O)c1ccncc1 | -9.4
CCCN1C[C@H](C)[C@@H](OC)CN(C)C(=O)c2cc(NC(=O)NC3CCCCC3)ccc2OC[C@@H]1C | 8.2
Cc1cc(C(=O)Nc2cccc3c2O[C@@H](CN(C)C(=O)Nc2ccc4c(c2)OCO4)[C@H](C)CN([C@@H](C)CO)C3=O)n(C)n1 | -3.4
O=S(=O)(NC[C@@H]1N[C@H](CO)[C@@H]1c1ccc(C2=CCCC2)cc1)c1ccccc1 | -6.3
CCCC(=O)Nc1ccc2c(c1)C(=O)N(C)[C@@H]1CC[C@@H](CC(=O)N3CCCCC3)O[C@H]1CO2 | 8.8
CN1CCCCN2[C@@H](CO)[C@@H](c3ccc(C4=CCCC4)cc3)[C@@H]2C1 | -1.1
C[C@@H]1CN([C@H](C)CO)C(=O)c2cc(NS(=O)(=O)c3cn(C)cn3)ccc2O[C@H]1CN(C)C | 7.3
O=C(NC[C@@H]1[C@H](c2ccccc2)[C@@H](CO)N1C(=O)C1CC1)NC1CCCC1 | 20.5
C/C=C/c1ccc([C@@H]2[C@H](CO)N(C(=O)CC)[C@H]2CNC(=O)CC2CC2)cc1 | -11.1
CC(C)CC#Cc1ccc([C@@H]2[C@@H](CO)N3CCCCN(C(=O)NC4CCCC4)C[C@H]23)cc1 | 19.5
C[C@@H]1CN([C@@H](C)CO)C(=O)c2cccc(NS(=O)(=O)c3ccc(Cl)cc3)c2O[C@@H]1CN(C)Cc1ccc2c(c1)OCO2 | -1.0
C[C@@H]1CN([C@@H](C)CO)C(=O)c2cc(NC(=O)CCN3CCOCC3)ccc2O[C@H]1CN(C)C(=O)Nc1ccc(F)cc1 | -1.2

Records listed above marked active in UUG fidelity.
SMILES | UUG fidelity
CO[C@H]1CN(C)C(=O)c2ccc(NC(=O)c3nc4ccccc4s3)cc2OC[C@H](C)N(Cc2ccncc2)C[C@H]1C | 172.9*

(list continues)
SMILES | UUG fidelity
O=C(Nc1cc(F)ccc1F)N1C[C@H]2[C@@H](c3ccccc31)[C@H](CO)N2Cc1ccncc1 | 8.6
Cc1ccccc1S(=O)(=O)N1CCCCN2[C@H](CO)[C@H](c3ccc(-c4cccnc4)cc3)[C@@H]2C1 | -5.1
CN1c2ccc(-c3cccc(C#N)c3)cc2[C@@H]2[C@@H](CCN2S(=O)(=O)c2cccc(F)c2)[C@@H]1CO | -10.9
O=C(c1cccnc1)N1C[C@H]2[C@@H](c3ccccc31)[C@@H](CO)N2Cc1ccc2c(c1)OCO2 | 63.1
